SARS PLP yeast = inhibitors of SARS-CoV papain-like protease in yeast; S. cerevisiae expressing SARS-CoV PLpro, growth rescue; control for the full effect not named in the record; Potency, µM (titrated, usually from 32.9 µM), inactives show at the highest dose activity, positive = growth rescue; 330,000 compounds, 0.19% hits; AID 485353; note: 0% is about no effect; nearly all actives have a fitted effect of over 55% in size; growth read by luminescence after 48 h
Lassa entry inh = inhibitors of Lassa virus binding or cell entry; Lassa virus pseudotype entry inhibition, cell reporter; control for the full effect not named in the record; Potency, µM (series often up to 37.9 µM), for inactives: at the highest dose activity change, negative = inhibition, most hits filed as inhibitors; 300,000 compounds, 1.2% hits; AID 540256; active means well fitted inhibition curve with a large enough effect; inconclusive means small, poorly fitted or top-dose-only effect, or effect the other way; inactive means flat fitted curve, though single readings scatter; tested in HEK293 cells; note: % is set by controls: 0 for no effect and ±100 for the full control effect; nearly all actives have a fitted effect of over 50% in size; luciferase read-out
Marburg entry inh = Marburg virus entry inhibition; Marburg virus pseudotyped entry inhibition, cell reporter; control for the full effect not named in the record; about a third of the inactives were read at about 46 µM; Potency, µM (series often up to 37.8 µM), for the others: at the top dose activity change, negative = inhibition, usual class: inhibitors; 300,000 compounds, 1.8% hits; active = well fitted inhibition curve with a large enough effect; inconclusive = small, poorly fitted or top-dose-only effect, or effect the other way; inactive = flat fitted curve, though single readings scatter; tested in HEK293 cells; about a fifth of its hits are not listed in these tables; note: % is set by controls: 0 for no effect and ±100 for the full control effect; luciferase read-out
Cruzain inh Det = inhibitors of Trypanosoma cruzi cruzain with detergent; 200,000 compounds, 0.43% hits; Potency, µM, for the others: max response, negative = inhibition, actives largely listed as inhibitors; P25779; purified cruzain, Z-FR-AMC fluorescence, 0.01% Triton; AID 1478; active = well fitted curve in the direction sought with a large enough effect; inconclusive = small, poorly fitted or top-dose-only effect, or another doubt; inactive = no such curve, though single readings can be large; an effect the other way counts as inactive or inconclusive;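 note: plate controls were neutral wells for no effect and buffer without enzyme for full effect; nearly all actives have a fitted effect of over 40% in size; top concentration of the series not given in the record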
Target sequence (P25779 123-467 limits assumed): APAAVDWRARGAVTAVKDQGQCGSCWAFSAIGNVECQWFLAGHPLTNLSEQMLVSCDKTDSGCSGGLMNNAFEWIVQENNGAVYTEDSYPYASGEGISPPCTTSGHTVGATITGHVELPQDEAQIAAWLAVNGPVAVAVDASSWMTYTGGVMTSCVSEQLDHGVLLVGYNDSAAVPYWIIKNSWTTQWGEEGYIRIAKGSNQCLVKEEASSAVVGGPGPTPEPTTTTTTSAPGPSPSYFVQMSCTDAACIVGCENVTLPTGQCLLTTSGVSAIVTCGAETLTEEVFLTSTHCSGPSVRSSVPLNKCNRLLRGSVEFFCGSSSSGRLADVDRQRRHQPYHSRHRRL
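Enzyme 1.5 nM, Z-FR-AMC 2 uM, NaOAc 100 mM pH 5.5, DTT 5 mM, Triton X-100 0.01%; 15 min RT compound preincubation; kinetic ex360/em450, 60 s delta.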
Cruzain noTriton = cruzain (T. cruzi) inhibition without detergent | 200,000 compounds, 2.3% hits | AID 1476 | purified cruzain, Z-FR-AMC fluorescence, no detergent | Potency, µM, inactives show max response, negative = inhibition, usual class: inhibitors; active = well fitted curve in the direction sought with a large enough effect; inconclusive = small, poorly fitted or top-dose-only effect, or another doubt; inactive = no such curve, though single readings can be large; an effect the other way counts as inactive or inconclusive;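 note: plate controls were enzyme without inhibitor for no effect and buffer without enzyme for full effect; nearly all actives have a fitted effect of over 40% in size; top concentration of the series not given in the record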
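Detergent-free condition (0.00005% Triton X-100) in acetate buffer pH 5.5 with DTT. 1.5 nM enzyme and compound were pre-mixed 15 min, then 2 uM Z-FR-AMC substrate added; reaction progress from fluorescence change between first and third reads (60 s).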
NS1 inh = blocks influenza NS1 protein function. S. cerevisiae slowed by influenza A NS1, growth recovery by OD600. Potency, µM (doses to about 46.1 µM), for inactives: at the highest dose activity, positive = more growth. 270,000 compounds, 0.4% hits. AID 2326; note: actives are rising curves; nearly all actives have a fitted effect of over 50% in size
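Compounds were scored for reversing the slow growth caused by influenza A NS1 in S. cerevisiae, measured by optical density at 600 nm. Assay medium contained 2% galactose at pH 6.0; NS1-free yeast of the same strain were the positive control.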
2A StopGo = FMDV 2A StopGo reporter, luciferase signal | 410,000 compounds, 1.2% hits | AID 1159524 | human cells with a luciferase reporter of 2A StopGo recoding; control for the full effect not named in the record | Potency, µM (top dose mostly 57.9 µM), for the others: top-dose signal change, negative = less light; active = well fitted falling curve with a large enough effect; inconclusive = small, poorly fitted or top-dose-only effect; inactive = no such curve, though single readings can be large or run the other way; tested in HEK293T cells; note: % is set by controls: 0 for no effect and ±100 for the full control effect; nearly all actives have a fitted effect of over 45% in size; luciferase light after 4 h
RE007 growth inh = less growth of the S. pombe RE007 Vpr strain; 360,000 compounds, 0.21% hits; Potency, µM (doses to about 92.2 µM), without a hit: at the highest dose activity change, negative = less growth; S. pombe RE007 Vpr strain, BacTiter-Glo ATP luminescence, 24 h; control for the full effect not named in the record; active = well fitted falling curve with a large enough effect; inconclusive = small, poorly fitted or top-dose-only effect; inactive = no such curve, though single readings can be large or run the other way;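 note: % is set by controls: 0 for no effect and ±100 for the full control effect; nearly all actives have a fitted effect of over 50% in size; the assay follows cell death caused by Vpr and the record does not say whether a fall means rescue or toxicity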
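Fission yeast RE007 carrying one integrated HIV-1 vpr copy, seeded at OD 0.01 in PMG+AL medium with 23 nL pinned compound. Grown 24 h at 30 degrees; viability read by BacTiter-Glo luminescence after 5 min.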
Starred values were filed as active, the others as inactive; ? = inconclusive; . = not tested or not shown; & = joins results of further samples; [ ] = dose if it differs, or a comment. Unless noted, calls come from the whole dose curve; as a rule, active means well fitted rising curve with a large enough effect; inconclusive means small, poorly fitted or top-dose-only effect; inactive means no such curve, though single readings can be large or run the other way. Potency is the fitted concentration of half-maximal effect.

compound	SARS PLP yeast	Lassa entry inh	Marburg entry inh	Cruzain inh Det	Cruzain noTriton	NS1 inh	2A StopGo	RE007 growth inh
CCOC(=O)C=C(OC(=O)c1ccc(OC)cc1)c1ccccc1	.	?	-3%	.	.	.	-3%	2%
CC(C)(C)OC(=O)N1CCC2(CC1)C(C#N)=C(N)OC1=C2C(=O)CCC1	-4%	11%[46.1 µM]	?	.	.	.	-9%	12%
O=C(Nc1cnccn1)c1cccnc1	2%	30%[14.3 µM]	-3%	5.2%	-7%	?	12%	4%
CN(C)C(=O)CCCCCCCCC(=O)N(C)C	3%	-17%	-17%[14.2 µM]	.	.	-4%	11%	18%
CCOC(=O)COc1ccc2c(c1)c(C(=O)OCC)c(C)n2CC	-5%	-10%	-3%&0%	-10%	6%	-39%	-4%	-8%
CN(CCCNC(=O)CCc1cn(C)c2ccccc12)C1CCCCC1	6%	-5%[46.1 µM]	?	.	.	-4%	3%	-6%
COc1ccc(NC(=O)c2scc(S(=O)(=O)C(C)C)c2N)cc1	-4%	?	?	.	.	-2%	-3%	-6%
O=C(CN1C(=O)NC2(CCc3ccccc32)C1=O)Nc1cc(C(F)(F)F)ccc1N1CCOCC1 (stereo not given)	3%	?	?	-1.2%	?	-3%	-15%	15%
COc1cccc(CNC(=O)CCCn2nc(C)n3c(cc4sccc43)c2=O)c1	-2%	.	17%&17%[46.1 µM]	0.2%	-2%	6%	-20%&-14%	9%
CN(Cc1ccccc1)S(=O)(=O)c1nnc(NC(=O)c2ccccc2F)s1	-2%	.	.	.	.	-1%	18%	6%
CCNC(=O)C(=O)NCCc1ccc(Cl)cc1	4%	0%	1%	-0.4%	5%	-1%	19%	-5%
CSC1=NCCN1C(=O)c1cccc(C(F)(F)F)c1	0%	3%	7%	-0.1%	0%	7%	-6%	18%
COc1ccc(CCNC(=O)CCc2c(C)nc3c(-c4ccc(F)cc4)c(C)nn3c2C)cc1OC	.	?	12%[46.1 µM]	-0.4%	14%	.	?	.
CC1CCCCC1NC(=O)c1ccc(S(=O)(=O)N2CCN(C)CC2)cc1 (stereo not given)	0%	.	.	.	.	-1%	-7%	1%
COCCCNC(=O)c1c(NC(=O)Cc2coc3c(C)c(C)ccc23)sc2c1CCCC2	.	?	?	-8.6%	-3%	.	-5%	.
CC(=C/c1ccccc1)/C=C1/SC(N2CCOCC2)=NC1=O	-10%	-10%	-20%	-8.7%	-4%	-144%	33%[activator]	6%
COc1ccccc1OCC(=O)Nc1ccccc1C(=O)NCc1ccco1	24%	7%	-9%	-3.2%	2%	8%	?	14%
O=C(CN1C(=O)c2ccccc2C1=O)OCC(=O)c1ccccc1	-7%	8%	0%[46.1 µM]	.	.	.	-1%	-7%
O=C(NCc1ccccc1)c1ccc(F)c(F)c1	1%	.	7%[46.1 µM]	.	.	0%	13%	10%
COc1cc(CC2COC(=O)C2(O)Cc2ccc(O)c(OC)c2)ccc1O (stereo not given)	0%	.	.	.	.	8%	?	-12%
O=C(O)c1cc2ccccc2cc1Nc1ccccc1	-5%	0%	-2%[46.1 µM]	.	.	-59%	-9%	?
COc1ccccc1C(=O)COC(=O)c1nc(Cl)ccc1Cl	-3%	-1%	17%	.	.	.	16%	?
COc1ccc(C(=O)CSc2nncn2C)cc1	5%	1%	?	-7.0%	-1%	3%	20%	11%
O=C(c1ccccc1NS(=O)(=O)c1cccc(C(F)(F)F)c1)N1CCc2ccccc21	-5%	-3%	?	-3.7%	5%	24%	24%	5%
Cc1ccc(C2C3=C(CCCC3=O)Nc3[nH]c(=S)[nH]c(=O)c32)cc1 (stereo not given)	5%	21%	8%	-20%	-26%	3%	-12%	-8%
COc1ccc(CNC(=O)CCc2c(C)c3cc4c(C)coc4c(C)c3oc2=O)cc1OC	.	7%[46.1 µM]	3%[46.1 µM]	0.0%	16%	.	-10%	.
CCOC(=O)C1CCN(CCCSc2ccc(C)cc2)CC1	.	-14%[46.1 µM]	?	.	.	.	-9%	-8%
Cc1ccccc1C(=O)OC1OC(=O)C(Cl)=C1N1CCOCC1 (stereo not given)	-19%	?	5%	-7.0%	11%	-3%	-14%	-10%
O=C(Cn1nc(-c2cccc([N+](=O)[O-])c2)c2ccccc2c1=O)Nc1cccnc1	3%	1%	7%	-3.3%	-10%	18%	-18%	-13%[3.69 µM]
CNC(=O)c1cnn(-c2nc(-c3ccc(OC)cc3)cs2)c1C(F)(F)F	-3%	.	.	.	.	0%	-7%	3%
COc1ccc(S(=O)(=O)N2CCC(O)(c3ccc(Cl)cc3)CC2)cc1	-12%	-3%	?	-1.1%	11%	-106%	?	-24%
CC(C)c1ccc(/C=C/c2ccc(=O)n(C)n2)cc1	0%	?	?	.	.	.	-7%	-1%
CC(=O)N(C(C)=O)c1nc(-c2ccccc2)cn1/N=C/c1cccc([N+](=O)[O-])c1	0%	-3%	8%	.	.	1%	-17%	-1%
CCCN(C(=O)c1nn(-c2ccc(C)cc2)c(=O)c2c1c1ccccc1n2C)c1ccccc1C	.	17%[46.1 µM]	3%[46.1 µM]	-0.2%	-14%	.	-4%	.
COc1ccc(OC)c(CNS(=O)(=O)c2ccc(-c3coc(C)n3)cc2)c1	.	-13%[46.1 µM]	.	-0.4%	-2%	.	-28%	.
O=C1CC(c2ccccc2)Cc2[nH]c(=O)c(C(=O)Nc3cccc(Cl)c3)cc21 (stereo not given)	.	8%[46.1 µM]	.	5.1%	14%	.	-14%	.
Oc1c(C(c2ccc(F)cc2)N2CCN(Cc3ccccc3)CC2)sc2nc(-c3ccco3)nn12 (stereo not given)	.	?	.	0.1%	1%	.	0%	.
CCCCn1c(-c2ccc(Cl)cc2)nc2c(=O)n(C)c(=O)[nH]c21	4%	4%	?	8.5%	5%	2%	?	5%
O=C(CNCc1ccco1)Nc1ccc(N2CCCCCC2)cc1	1%	0%[46.1 µM]	-2%[46.1 µM]	.	.	8%	24%	1%
Cc1cnc(C(=O)OCC(=O)Nc2sc3c(c2C(N)=O)CCCC3)cn1	-9%	-7%	9%	.	.	.	-12%	9%
CC1(C)CC(=O)C(C(C2=C(O)CC(C)(C)CC2=O)c2cccs2)C(=O)C1 (stereo not given)	-3%	0%	-2%	1.8%	2%	9%	?	17%
C/C(=N\O)c1ccc(N2C(=O)C3CC=C(Cl)CC3C2=O)cc1 (stereo not given)	5%	-1%	1%	-2.8%	4%	4%	54%[activator]	2%
O=C1Nc2ccccc2C12OCCO2	6%	5%	11%	-1.1%	-6%	-1%	21%	4%
CCc1cc(C(=O)OC)c(NC(=O)CCCC(=O)O)s1	13%	11%	26%	-2.2%	-6%	-32%	-8%	6%
COc1ccc(CNC(=O)C2CCCN(Cc3nc(-c4cccc(C)c4)oc3C)C2)cc1 (stereo not given)	0%	?	?	.	.	.	25µM*	3%
CCc1ccc(-c2nc(CS(=O)CC(=O)NCc3ccccc3)c(C)o2)cc1 (stereo not given)	0%	.	.	.	.	23%	2%	15%
Cc1ccc(CS(=O)(=O)CCC(=O)NC2CC2)cc1	-9%	1%	1%	3.2%	-8%	11%	-11%	3%
C/C(N)=C(/C#N)C(=O)CN1CCCCC1	10%	6%	-1%	4.6%	11%	3%	13%	16%
COc1ccc(CCNC(=O)Cn2c(=O)c3sccc3n(CC(=O)Nc3cccc(C(F)(F)F)c3)c2=O)cc1OC	.	-7%[46.1 µM]	?	-1.0%	3%	.	-11%	.
O=C(CCCOc1ccccc1)N1CCN(C(=O)c2ccco2)CC1	0%	-5%	?	-3.6%	-1%	-4%	28%	14%
COc1ccc(CCNC(=O)/C=C/c2ccc3ccccc3n2)cc1OC	-3%	.	?	.	.	-14%	28µM*	13%
O=C1Nc2ccccc2C(O)(C(=O)NCc2ccc3c(c2)OCO3)N1c1ccc(Cl)c(Cl)c1 (stereo not given)	13%	1%	1%	3.0%	?	14%	-21%	10%
CN(CC(=O)Nc1cccnc1)S(=O)(=O)c1ccc(Br)cc1	7%	2%	?	.	.	13%	1%	6%
O=[N+]([O-])c1ccc(NN=Cc2ccccc2)nc1	.	-21%[46.1 µM]	-11%	.	.	.	17%	2%
Cc1nn(C)c(C)c1CN(Cc1nc(-c2ccc(F)cc2F)oc1C)C1CC1	-1%	-18%[46.1 µM]	?	.	.	-1%	-27%	14%
COP(=O)(OC)c1ccc(NCc2cc(O)ccc2O)cc1	.	-23%	4.5µM*	.	.	.	8%	-23%

Other structures
compound	SARS PLP yeast	Lassa entry inh	Marburg entry inh	Cruzain inh Det	Cruzain noTriton	NS1 inh	2A StopGo	RE007 growth inh
CCCC(=O)Nc1cccc(-c2nc3ccccc3o2)c1	25%	-12%	6%[46.1 µM]	3.0%	-20%	4%	-26%	17%
COc1ccc(-c2nc3ccccc3s2)cc1NC(=O)c1cc2ccccc2o1	.	?	1%[46.1 µM]	-1.0%	4%	.	2%	.
C/C(=N\OCC(=O)Nc1cc(C)cc(C)c1)c1ccc2c(c1)OCCO2	-8%	5%	?	-5.2%	5%	2%	-19%	-5%
N#CC1=C(N)Oc2n[nH]c(-c3ccccn3)c2C1c1c(F)cccc1Cl (stereo not given)	2%	27%	1%	-3.6%	?	-2%	11%	34%
Cc1cc(C(=O)Nc2nnc(-c3ccccc3)s2)no1	-13%	21%	6%	0.0%	?	?	19%	?
COC(=O)C1=C(C)NC(C)=C(C(=O)OC)C1c1ccc(-c2cc(Cl)ccc2Cl)o1	-5%	?	-28%	-20%	?	-1%	-12%	3%
CC1C(=O)N2CCCc3cc(NC(=O)c4ccccc4C(F)(F)F)cc1c32 (stereo not given)	-3%	-4%	-8%	.	.	.	-14%	-1%
CC1=C(C(=O)NCc2ccc(Cl)cc2)C2(CCCCC2)OC1=O	.	-14%[46.1 µM]	.	-0.5%	0%	.	2%	.
COc1ccccc1CCNC(=O)c1cc2ccccn2n1	.	?	.	2.8%	-6%	.	47%[activator]	.
CCOC(=O)CN1N=C(/C=C/c2ccc(OCC)cc2)CCC1=O	-1%	-29%[46.1 µM]	22%[46.1 µM]	.	.	.	10%	9%

Bioassay records (PubChem)
